# AF4-AF9 inh: MLL-AF4/AF9 protein interaction inhibition | AID 651704 | inhibition, % at 10 µM | P42568 | 350,000 tested, 0.47% active | AlphaScreen, biotin-AF4 peptide binding to FLAG-AF9;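 active = every replicate reaching a set inhibition limit, whatever the replicate mean, cut at about 25% in these data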;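 note: 0% = plate neutral control median and 100% = total signal loss; the record names both 10 and 1 µM as test concentration; the first replicate is given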
# Target sequence (P42568 whole entry, looked up): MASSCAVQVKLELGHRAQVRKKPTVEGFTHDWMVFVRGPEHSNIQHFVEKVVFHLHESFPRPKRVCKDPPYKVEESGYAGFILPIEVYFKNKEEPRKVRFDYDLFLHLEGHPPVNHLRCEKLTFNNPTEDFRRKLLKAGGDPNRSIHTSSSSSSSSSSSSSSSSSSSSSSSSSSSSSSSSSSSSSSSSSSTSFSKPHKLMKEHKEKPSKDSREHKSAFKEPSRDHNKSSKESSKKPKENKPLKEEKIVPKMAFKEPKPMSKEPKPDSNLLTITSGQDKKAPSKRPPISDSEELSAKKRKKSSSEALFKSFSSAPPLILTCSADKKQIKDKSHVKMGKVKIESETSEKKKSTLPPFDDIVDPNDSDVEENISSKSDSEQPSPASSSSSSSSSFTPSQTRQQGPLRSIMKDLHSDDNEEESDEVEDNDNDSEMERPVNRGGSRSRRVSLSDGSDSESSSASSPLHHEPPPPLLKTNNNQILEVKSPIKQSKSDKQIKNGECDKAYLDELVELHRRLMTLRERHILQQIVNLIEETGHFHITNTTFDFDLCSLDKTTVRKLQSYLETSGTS
# FGF22 binding: FGF22 (human) thermal shift binding | Q9HCT0 | recombinant FGF22 thermal shift, SYPRO orange fluorescence; percent of sucrose octasulfate shift, DMSO zero | calls only at 9.99 µM | 340,000 tested, 1.5% active;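 active = melting point raised past a set limit in the mean and every replicate; three in four hits are not shown here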
# Target sequence (Q9HCT0 whole entry, looked up): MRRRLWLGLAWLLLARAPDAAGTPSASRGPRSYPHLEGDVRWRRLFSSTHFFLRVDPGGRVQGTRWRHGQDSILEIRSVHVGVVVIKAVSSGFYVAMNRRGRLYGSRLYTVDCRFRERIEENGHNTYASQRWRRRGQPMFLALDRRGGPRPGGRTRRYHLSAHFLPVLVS
# Ecoli rRNA inh: inhibits bacterial ribosomal RNA function over humanized ribosomes; E. coli WT GFP vs humanized-ribosome RFP mutants, fluorescence, 24 h; hits give low values; DMSO median 0, no signal -100; GFP signal change (wild-type ribosome), % (test concentration not listed); 350,000 tested, 1.6% active; AID 720706;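 active = significant combined selectivity score with lowered wild-type GFP, culture density cut under 30%, mutant RFP and density less affected; inactive = any of these conditions unmet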; note: one replicate is shown; some compounds called inactive have numbers as strong as hits
# Ecoli rRNA inh OD600: also measured in Ecoli rRNA inh; calls as there; OD600 change, %; measured here: OD600 growth;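 optical density of the mix in the first replicate; 0 = DMSO median and -100 = no signal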
# Ecoli rRNA inh RFP: second read-out of Ecoli rRNA inh, no call of its own (marks repeat the call); RFP signal change, %; measured here: RFP humanized mutant strains;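 first replicate; 0 = DMSO median and -100 = no signal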
# An asterisk follows results filed as active; i = inactive; & = joins results of further samples. These rows are one share of the data; the hit share may differ from the screen's.
SMILES,AF4-AF9 inh,FGF22 binding,Ecoli rRNA inh,Ecoli rRNA inh OD600,Ecoli rRNA inh RFP
COc1ccc(S(=O)(=O)N2CCOCC2)cc1NC(=O)c1ccc(SC)cc1OC,-0.4,i,9,9,3.7
COc1ccc(Cc2nc3ccc(C(=O)N4CCC(C(N)=O)CC4)cc3o2)cc1,0.4,i,-3,-3,5.0
CCCNC(=O)c1cc(C2CCCCN2S(=O)(=O)c2ccc(C#N)cc2)on1 (centres undefined),0.3,i,7,6,0.3
COc1ccc(S(=O)(=O)N(C)C[C@@H]2Oc3ccc(NC(=O)Nc4c(C)noc4C)cc3CC(=O)N([C@@H](C)CO)C[C@@H]2C)cc1,-2.5,i,-2,-1,-2.8
Cc1ccc(S(=O)(=O)NCC[C@@H]2CC[C@@H](NC(=O)C3CCOCC3)[C@H](CO)O2)cc1,-0.4,i,1,2,-1.6
C[C@@H]1CN([C@@H](C)CO)C(=O)c2cccc(NS(=O)(=O)c3cn(C)cn3)c2O[C@H]1CN(C)C,-2.2,i,-1,-1,-2.3
CC=Cc1ccc2n(c1=O)C[C@@H]1[C@@H](CO)[C@H](C(=O)NC3CCCC3)N(Cc3cccnc3)[C@H]21 (mixture of isomers),-3.1,i,3,0,2.3
CCCN1C[C@H](C)[C@H](OC)CN(C)C(=O)c2ccc(NC(=O)c3cnccn3)cc2OC[C@H]1C,-1.6,i,1,0,-1.4
CC12CCC3c4ccc(OCCCO)c([N+](=O)[O-])c4CCC3C1CCC2=O (centres undefined),11,i,-53,-70,-6.1
Cc1noc(C)c1S(=O)(=O)Nc1cccc2c1O[C@H](CN(C)C)[C@H](C)CN([C@@H](C)CO)C2=O,-0.7,i,1,2,-0.7
CN(C)CC(=O)N1[C@H](C#N)[C@@H](c2ccccc2-c2cccc(C(=O)N(C)C)c2)[C@H]1CO,-3.1,i,4,-1,0.0
C[C@H](CO)N1C[C@H](C)[C@H](CN(C)C(=O)NC2CCCCC2)Oc2cc(C#Cc3ccc(F)cc3)ccc2S1(=O)=O,0.5,i,0,4,-3.6
C[C@@H]1CN([C@@H](C)CO)C(=O)Cc2cc(NC(=O)CCN3CCOCC3)ccc2O[C@H]1CN(C)S(=O)(=O)c1cccs1,-8.2,i,-2,-8,-0.6
CC(C)NC(=O)C1(C)CCN1Cc1ccc(-c2ccccc2)cc1 (centres undefined),0.2,i,-1,-3,1.2
CC1(C(=O)NS(=O)(=O)c2ccccc2)CCN1C(=O)CC1CCCCC1 (centres undefined),-4.5,i,3,12,-1.7

# In the list so far, these contain an aryl methoxy group.
SMILES,AF4-AF9 inh,FGF22 binding,Ecoli rRNA inh,Ecoli rRNA inh OD600,Ecoli rRNA inh RFP
COc1ccc(S(=O)(=O)N2CCOCC2)cc1NC(=O)c1ccc(SC)cc1OC,-0.4,i,9,9,3.7
COc1ccc(Cc2nc3ccc(C(=O)N4CCC(C(N)=O)CC4)cc3o2)cc1,0.4,i,-3,-3,5.0
COc1ccc(S(=O)(=O)N(C)C[C@@H]2Oc3ccc(NC(=O)Nc4c(C)noc4C)cc3CC(=O)N([C@@H](C)CO)C[C@@H]2C)cc1,-2.5,i,-2,-1,-2.8

# The list continues:
SMILES,AF4-AF9 inh,FGF22 binding,Ecoli rRNA inh,Ecoli rRNA inh OD600,Ecoli rRNA inh RFP
COc1ccccc1-c1cn(CC[C@H]2CC[C@@H](NC(=O)C3CCC3)[C@@H](CO)O2)nn1,0.5,i,-3,-9,0.2
C[C@H](CO)N1C[C@H](C)[C@H](CN(C)C(=O)Nc2ccc(C(F)(F)F)cc2)Oc2c(NC(=O)Nc3ccc4c(c3)OCO4)cccc2C1=O,13,i,-10,-3,-4.8
Cc1ccc(F)c(S(=O)(=O)NC(=O)C2(C)CCN2C(=O)c2cccc3ccccc23)c1 (centres undefined),-1.3,i,11,13,5.6
CCC(=O)Nc1ccc2c(c1)OC[C@@H](C)N(C(=O)CN(C)C)C[C@H](C)[C@H](OC)CN(C)C2=O,-0.9,i,0,1,0.3
C[C@H](CO)N1C[C@H](C)[C@@H](CN(C)C(=O)C2CCCCC2)OCc2cnnn2CCCC1=O,-3.1&-1.1&-1.5,i,3&3,0&1,-1.6&-0.3
CC(C)NC(=O)Nc1ccc2c(c1)C(=O)N([C@@H](C)CO)C[C@H](C)[C@H](CN(C)S(=O)(=O)c1cn(C)cn1)OCCCC[C@H](C)O2,-1.1,i,5,7,-2.2
C[C@@H]1CCCCO[C@@H](CN(C)Cc2ccc(C(=O)O)cc2)[C@@H](C)CN([C@@H](C)CO)C(=O)c2cc(NC(=O)NC3CCCCC3)ccc2O1,1.3,i,-2,2,-2.1
C/C=C/c1ccc2c(c1)O[C@@H](CN(C)C(=O)C1CCOCC1)[C@@H](C)CN([C@@H](C)CO)S2(=O)=O,-0.5,i,0,-2,-0.3
CC(C)NC(=O)N1[C@@H]2CN(C(=O)c3ccccn3)c3ccccc3[C@@H]2[C@@H]1CO,0.6,i,1,8,-1.7
CC(C)C#Cc1ccc2c(c1)O[C@H](CN(C)Cc1cncnc1)[C@H](C)CN([C@@H](C)CO)S2(=O)=O,0.9,i,-6,-16,-0.1
N#Cc1cccc(-c2ccc([C@@H]3[C@H](CO)N4CCCCN(S(=O)(=O)c5ccccc5)C[C@@H]34)cc2)c1,4.0,i,-17,-40,0.0
C/C=C/c1ccc([C@@H]2[C@H](CO)N(C(=O)CN(C)C)C23CN(C(=O)C2CCOCC2)C3)cc1,3.8,i,1,2,1.5
O=C1NC(=S)NC1=Cc1ccc2c(c1)CCC2,4.3,i,-15,4,9.5
C[C@@H]1CN([C@@H](C)CO)C(=O)c2cc(NS(=O)(=O)c3ccc(Cl)cc3)ccc2O[C@H]1CN(C)C,-14,i,0,2,0.7
COc1cccc(C(O)c2nc(-c3ccc(N(C)C)cc3)cs2)c1 (centres undefined),7.3,i,-1,-39,-4.3

# Some values from the entries so far.
# O=C1NC(=S)NC1=Cc1ccc2c(c1)CCC2 @ Ecoli rRNA inh OD600: 4
# C[C@@H]1CN([C@@H](C)CO)C(=O)c2cc(NS(=O)(=O)c3ccc(Cl)cc3)ccc2O[C@H]1CN(C)C @ Ecoli rRNA inh: 0
# CC(C)NC(=O)C1(C)CCN1Cc1ccc(-c2ccccc2)cc1 (centres undefined) @ AF4-AF9 inh: 0.2

# Additional entries:
SMILES,AF4-AF9 inh,FGF22 binding,Ecoli rRNA inh,Ecoli rRNA inh OD600,Ecoli rRNA inh RFP
C[C@@H]1CN([C@H](C)CO)S(=O)(=O)c2ccc(-c3cccc(C(=O)N(C)C)c3)cc2O[C@@H]1CN(C)C(=O)Cc1ccccn1,-0.2,i,-1,-3,-3.7
CCOC(=O)C1=CCC(c2ccccc2)N(S(C)(=O)=O)C1 (centres undefined),-36,i,10,13,3.1
CCN(C)C1CN(Cc2cn(Cc3ccc(Cl)cc3)nn2)S(=O)(=O)C1 (centres undefined),-4.1,i,5,13,-4.2
C[C@H](CO)N1C[C@H](C)[C@H](CN(C)C(=O)Nc2ccc3c(c2)OCO3)Oc2ccc(NC(=O)NC3CCCCC3)cc2C1=O,-0.1,i,-7,-5,0.8
CC(=O)N1[C@H](C(=O)NCCCN(C)C)[C@@H](CO)[C@@H]2Cn3c(ccc(-c4cccc(F)c4)c3=O)[C@@H]21,-0.8,i,1,2,-2.7
Cc1ccc(S(=O)(=O)N(C)C[C@@H]2Oc3c(NC(=O)Nc4ccccc4)cccc3C(=O)N([C@@H](C)CO)C[C@@H]2C)cc1,4.6,i,-3,-6,7.4
C[C@@H]1CN([C@@H](C)CO)C(=O)c2cccc(NC(=O)c3cnccn3)c2O[C@H]1CN(C)S(=O)(=O)c1cn(C)cn1,-2.3,i,7,7,-3.3
CO[C@H]1CN(C)C(=O)c2cc(C#N)ccc2OCC[C@@H]2CC[C@@H](OC)[C@@H](CN(C)C(=O)[C@@H]1C)O2,0.2&-1.4,i,3,8,-12
Cc1cc(C)c(CN2CCN(C(=O)CC[C@H]3O[C@@H](n4ccc(=O)[nH]c4=O)[C@H](O)[C@@H]3O)CC2)c(C)c1,-8.7,i,2,6,-0.7
C[C@H]1CN([C@@H](C)CO)C(=O)Cc2cc(NC(=O)Nc3cccc4ccccc34)ccc2O[C@@H]1CN(C)S(=O)(=O)c1ccc(F)cc1,1.4,i,2,-1,-1.5
COc1ccc(NC(=O)Nc2ccc3c(c2)CC(=O)N([C@@H](C)CO)C[C@H](C)[C@H](CN(C)Cc2ccc(Oc4ccccc4)cc2)O3)cc1,-0.7,i,-1,-4,0.6
C[C@@H]1CN([C@@H](C)CO)C(=O)c2cc(/C=C/c3ccccc3)cnc2O[C@H]1CN(C)C(=O)NC1CCCCC1,7.0,i,-10,-32,15
C[C@@H]1CN([C@H](C)CO)C(=O)Cc2cc(NC(=O)Nc3ccc(C(F)(F)F)cc3)ccc2O[C@@H]1CN(C)Cc1ccc(C(=O)O)cc1,-1.5,i,2,-5,1.4
O=C(Cc1ccncc1)NCC[C@H]1CC[C@H](NC(=O)C2CC2)[C@H](CO)O1,-1.9,i,2,4,-2.5
C[C@@H]1CN([C@@H](C)CO)C(=O)c2cc(NC(=O)c3ccncc3)ccc2O[C@H]1CN(C)C(=O)Nc1ccc2c(c1)OCO2,-2.1,i,3,4,-1.2
C[C@H]1CN([C@@H](C)CO)S(=O)(=O)c2ccc(C#CC3CC3)cc2O[C@@H]1CN(C)C(=O)c1cccnc1,-2.4,i,-2,0,-0.4
Cc1ccccc1-c1ccc2c(c1)O[C@@H](CN(C)C(=O)Nc1ccc(C(F)(F)F)cc1)[C@@H](C)CN([C@H](C)CO)S2(=O)=O,-0.4,i,3,4,-4.1
CO[C@@H]1CN(C)C(=O)c2cc(NC(=O)C3CC3)ccc2OC[C@@H](C)N(CC2CCOCC2)C[C@H]1C,-7.3,i,0,9,0.1
O=C(CN1CCOCC1)N[C@H]1CC[C@H](CCNC(=O)Nc2cc(F)ccc2F)O[C@@H]1CO,3.6,i,3,4,0.7
COC(=O)[C@@H]1[C@@H](CO)[C@@H]2Cn3c(ccc(-c4cncnc4)c3=O)[C@@H]2N1C(=O)C1CCC1,0.0,i,-1,-2,-3.9
O=C1c2[nH]c3ccccc3c2CC1N1C(=O)c2ccccc2C1=O (centres undefined),-0.2,i,5,17,-0.1
CCCC#Cc1cnc2c(c1)C(=O)N([C@H](C)CO)C[C@@H](C)[C@H](CN(C)Cc1cccnc1)O2,0.6,i,-1,-12,-0.3
COc1cccc(NC(=O)N(C)C[C@H]2Oc3cc(C#Cc4ccc(F)cc4)ccc3S(=O)(=O)N([C@@H](C)CO)C[C@@H]2C)c1,-14,i,0,-1,0.4
COc1ccc2c3c(n(C)c2c1)[C@H](CO)N(Cc1ccncc1)CC31CCN(C(=O)C2CCCC2)CC1,-1.9,i,4,-6,4.4
CCN(CC)S(=O)(=O)c1cccc(NC(=O)COC(=O)c2[nH]c(C)c(C(C)=O)c2C)c1,0.0,i,8,-2,-0.8
C[C@H](O)C#Cc1ccc2c(c1)O[C@H](CN(C)C(=O)c1ccncc1)[C@H](C)CN([C@@H](C)CO)S2(=O)=O,-1.5,i,0,3,-1.8
CC(O)(c1ccc(F)c(F)c1)c1nc(-c2cnc3ccccc3c2)cs1 (centres undefined),0.2,i,-12,-49,15
O=C(NCc1cccnc1)c1ccc2sc([C@@H]3O[C@H](CO)[C@H](O)[C@H](O)[C@H]3O)nc2c1,-6.5,i,6,18,-2.0
CCCc1cn(CC[C@@H]2CC[C@@H](NC(=O)C3CCCCC3)[C@H](CO)O2)nn1,-1.0,i,0,6,-0.8
Cc1nc(NC(=O)C(C)(C)C)sc1C(=O)Cn1cc(-c2ccc(C(C)(C)C)cc2)nn1,-1.7,i,2,12,5.8
COc1ccc(NC(=O)N(C)C[C@@H]2Oc3ncc(C4=CCCC4)cc3C(=O)N([C@H](C)CO)C[C@@H]2C)cc1,-3.2,i,1,2,-1.7
O=C(CC1CC1)N1[C@@H](CO)[C@@H]2c3ccccc3N(S(=O)(=O)c3ccccc3F)C[C@@H]21,-1.5,i,-6,-12,0.4
CCCCOCCCNC(=O)C[C@@H]1C[C@@]2(C(=O)OC)CC(C)(C)CC=C2N(Cc2ccc3c(c2)OCO3)C1=O,3.0,i,2,-11,5.9
COc1cccc(NC(=O)C[C@@H]2CC[C@@H]3[C@@H](COc4ccc(NC(=O)C5CCCCC5)cc4C(=O)N3C)O2)c1,2.9,i,-2,-1,0.3
C[C@H](CO)N1C[C@H](C)[C@H](CN(C)S(=O)(=O)c2ccc(Cl)cc2)Oc2c(NS(=O)(=O)c3ccc(F)cc3)cccc2C1=O,1.4,i,-4,-7,-1.3
COCC#Cc1cnc2c(c1)C(=O)N([C@@H](C)CO)C[C@@H](C)[C@H](CN(C)C(C)=O)O2,-16,i,1,0,-1.9
COC(=O)N1CCCCC1c1cc(C(=O)NCc2cccnc2)no1 (centres undefined),-1.4,i,7,13,-1.8

# Bioassay records: PubChem BioAssay, Broad Institute
